Compound activity as filed in PubChem.
miR-21 FLuc – raises the signal of a miR-21 reporter; HeLa miR-21 FLuc reporter, luciferase, 48 h; Potency, µM (top dose mostly 38.3 µM), for the others: at the highest dose reporter change, positive = more light; 340,000 tested, under 10 active; active = well fitted rising curve with a large enough effect; inconclusive = small, poorly fitted or top-dose-only effect; inactive = no such curve, though single readings can be large or run the other way;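 further: % of control where 0% means no effect; miR-21 action dims this reporter so a rising signal means less miR-21 action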
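HeLa cells stably expressing CMV-driven firefly luciferase with a downstream miR-21 binding sequence, endogenously expressing miR-21, were treated with titrations (up to about 40uM final) for 48 hours at 37 degree Celsius. Luciferase luminescence was read after lysis.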
GLA inh pH 4.5 – inhibitors of human alpha-galactosidase A at pH 4.5; purified enzyme, 4-MU-alpha-Gal fluorescence, pH 4.5; activity change, negative = inhibition, % at 105 µM; 230,000 tested, under 10 active; inconclusive = small, poorly fitted or top-dose-only inhibition, or a rising curve; inactive = flat fitted curve, though single readings scatter; no compound was filed as active;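 further: 0% = full activity with enzyme and -100% = basal without enzyme; dose as in the result columns while the protocol names 77 µM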
Rango-impB inh – Rango-importin beta binding inhibition | Q14974 | Rango CFP/YFP FRET sensor + importin beta, 45 min | 340,000 compounds, 0.031% hits | AID 540263 | Potency, µM (series often up to 92.2 µM), inactives show top-dose inhibition of complex formation; active = rising FRET ratio curve, often small or poorly fitted; inconclusive = mostly compound fluorescence or quenching in the first reads; inactive = flat curves in all reads;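 further: potency means the concentration at half of the fitted maximal effect; 0% = DMSO wells and 100% = buffer wells lacking importin beta; nearly all actives have a fitted effect of over 15% in size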
Target sequence (Q14974 whole entry, looked up): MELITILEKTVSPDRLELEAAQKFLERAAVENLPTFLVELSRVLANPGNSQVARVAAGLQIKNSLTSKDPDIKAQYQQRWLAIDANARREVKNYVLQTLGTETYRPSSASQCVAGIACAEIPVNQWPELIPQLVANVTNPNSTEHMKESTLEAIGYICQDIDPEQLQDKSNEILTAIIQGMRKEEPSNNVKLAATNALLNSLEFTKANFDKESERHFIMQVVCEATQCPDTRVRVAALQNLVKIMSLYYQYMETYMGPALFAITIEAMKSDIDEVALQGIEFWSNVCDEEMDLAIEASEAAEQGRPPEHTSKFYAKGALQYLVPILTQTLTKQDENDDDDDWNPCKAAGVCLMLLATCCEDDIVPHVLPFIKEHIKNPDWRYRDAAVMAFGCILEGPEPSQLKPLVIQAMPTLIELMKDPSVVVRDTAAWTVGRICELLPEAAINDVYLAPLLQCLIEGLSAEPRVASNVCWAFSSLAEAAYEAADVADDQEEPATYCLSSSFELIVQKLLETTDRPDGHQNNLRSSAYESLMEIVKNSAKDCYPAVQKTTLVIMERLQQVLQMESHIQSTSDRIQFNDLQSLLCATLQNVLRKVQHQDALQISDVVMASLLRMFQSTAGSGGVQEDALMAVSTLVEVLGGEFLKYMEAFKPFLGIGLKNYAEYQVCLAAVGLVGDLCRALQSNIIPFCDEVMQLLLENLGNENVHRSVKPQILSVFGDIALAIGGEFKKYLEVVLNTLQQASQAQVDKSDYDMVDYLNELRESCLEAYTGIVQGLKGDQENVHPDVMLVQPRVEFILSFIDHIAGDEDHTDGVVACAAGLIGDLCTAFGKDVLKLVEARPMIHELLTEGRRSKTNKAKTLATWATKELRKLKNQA
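FRET biosensor Rango (snurportin 1 IBB between N-terminal EYFP and C-terminal Cerulean), 50 nM in PBS/1 mM DTT/0.02% Tween-20/0.1% BSA, preincubated 5 min RT with compound; 0.125 microM importin beta added, 45 min RT, CFP/YFP FRET ratio read.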
Rango dissoc inh – inhibitors of RanGTP-induced Rango-importin beta complex dissociation. Potency, µM (titrated, usually from 46.1 µM), for inactives: at the highest dose activity change, negative = inhibition. Biochemical FRET Rango-importin beta, RanGTP-induced dissociation. O95149+P62826. 340,000 compounds, 0.071% hits; active means falling FRET ratio curve, often poorly fitted, with flat reads before Ran was added; inconclusive means other falling curves, or compound fluorescence or quenching; inactive means flat or rising ratio curve;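 further: potency means the concentration at half of the fitted maximal effect; % of control where 0% means no effect; nearly all actives have a fitted effect of over 45% in size; -100% = wells without RanGTP and RCC1; the record marks most hits as doubtful in a second field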
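Compounds sat 5 min at room temperature with 0.1 uM Rango biosensor plus 0.25 uM importin beta, then FRET pre-read. RanGTP-RCC1 (0.6 uM Ran, 2mM GTP, 0.2 uM RCC1) added for 45 min, and the CFP/YFP post-read measured blocked complex dissociation.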
* marks the source's active call; other numbers are inactive results; ? = inconclusive; . = no result given. This is a subset (hit frequency here may not be typical).

Start of the listing, in advance:
Molecule	miR-21 FLuc	GLA inh pH 4.5	Rango-impB inh	Rango dissoc inh
Cc1cccc(NC(=O)Cn2c(=O)n(C)c3ccccc32)c1	-9%	7	-0.3%	3%
O=C(CCSc1nnc(-c2ccncc2)o1)Nc1cccc2ccccc12	-14%	-7	-0.4%	0%
O=C(COC(=O)c1ncc(Cl)c(Cl)c1Cl)NC(=O)NCc1ccccc1	-6%	6	-4.8%	10%

The whole of this part, repeating the preview:
Molecule	miR-21 FLuc	GLA inh pH 4.5	Rango-impB inh	Rango dissoc inh
Cc1cccc(NC(=O)Cn2c(=O)n(C)c3ccccc32)c1	-9%	7	-0.3%	3%
O=C(CCSc1nnc(-c2ccncc2)o1)Nc1cccc2ccccc12	-14%	-7	-0.4%	0%
O=C(COC(=O)c1ncc(Cl)c(Cl)c1Cl)NC(=O)NCc1ccccc1	-6%	6	-4.8%	10%
O=C(CCn1c(=O)[nH]c2ccsc2c1=O)NCCc1ccc(Cl)cc1	-2%	4	-0.3%	-1%
COC(=O)c1ccccc1S(=O)(=O)N1CCC(C(=O)OCc2ccc([N+](=O)[O-])cc2)CC1	.	.	4.5%	9%
CC(=O)c1c(C(C)=O)c(C)n(-c2ccc(C)c(NC(=O)c3ccccc3Cl)c2)c1C	2%	-20	-0.2%	-8%
Cc1c(C(=O)OCC2CCCO2)[nH]c2c1C(=O)CC(c1ccco1)C2 (configuration not stated)	23%	-4	0.5%	0%
CC(C)CC(C(=O)NC1CCCCC1)N(Cc1ccccc1)C(=O)c1snc(C(N)=O)c1N (configuration not stated)	6%	.	-2.2%	-6%
OCCN1CCN(c2ncnc3sc(-c4ccccc4)cc23)CC1	-40%	-26	-2.9%	5%
C=CCOc1ccccc1C(=O)/C=C1/C(=O)Nc2ccccc21	?	.	-0.7%	21%
O=C(/C=C/c1cccc([N+](=O)[O-])c1)NCCSCc1ccc(Cl)cc1Cl	-1%	-3	-3.0%	8%
O=C1N[C@@H](c2ccccc2)COC(=O)[C@@H](Cc2ccc(F)cc2)C/C=C\C[C@H]1CC(=O)N(CCO)Cc1ccccc1	.	.	-1.9%	2%
CN(C)c1ccc(C(CNS(=O)(=O)c2ccc(F)c(F)c2)c2c[nH]c3ccccc23)cc1 (configuration not stated)	12%	-1	0.0%	-11%
COc1ccc2c(c1)c(C(O)CN1CCC3(CC1)OCCO3)c(C)n2C (configuration not stated)	-7%	3	.	.
COc1ccc(CNC(=O)CCCOc2cc(=O)n(C)c3ccccc23)cc1	-1%	3	1.6%	-3%
CCn1c(CNC(=O)Cc2ccc(OC)cc2)nnc1SCC(=O)NC1CCCCC1	0%	-9	0.5%	0%
CC1CCN(C(=O)c2ccc([N+](=O)[O-])o2)CC1	12%	.	3.2%	-7%
COc1ccc(NN=Nc2nc3c([nH]2)c(=O)n(C)c(=O)n3C)cc1	3%	3	-1.6%	5%
O=S(=O)(c1cccc(S(=O)(=O)N2CCOCC2)c1)N1CCCCC1	-4%	9	-4.3%	16%
COc1ccc(CCNS(=O)(=O)c2cn(C)nc2C)cc1	1%	.	0.9%	-10%
CCOc1ccccc1N(CC(=O)Nc1cc(OC)ccc1OC)S(C)(=O)=O	-10%	-15	-1.1%	0%
CCCN=Cc1sc2ccc(OCC)cc2c1O	-50%	4	-0.4%	?
CCCOc1ccc(NCC(=O)Nc2ccc(C)cc2C)cc1	-9%	4	1.9%	12%
Cc1ccccc1C(=O)c1cccn1CC(=O)N1CCCCC1	1%	.	3.7%	-5%
Cc1ccc(N/N=C/c2ccc3c(c2)OCCO3)cc1Cl	-49%	1	5.4%	5%
CCC(C)[C@@H](C(=O)N1CCNCC1)n1cc(CCCN=C(N)N)nn1 (some centres not stated)	-1%	5	0.0%	3%
CN(CC(=O)N1CCN(c2ccccn2)CC1)S(=O)(=O)c1ccc(Cl)cc1	2%	.	0.4%	-3%
COc1ccc(NC(=O)c2cccc(OS(=O)(=O)N(C)C)c2)cc1	-1%	8	3.3%	-1%
Cc1c(C)c2c(OCC(=O)NCc3ccco3)cc3c(c2oc1=O)CCC(C)(C)O3	1%	.	-1.9%	-4%
c1ccc2[nH]c(C3CC3)nc2c1	-2%	7	6.9%	3%
O=c1[nH]c2ccc(Cl)cc2c(-c2ccccc2)c1N1CCN(c2ccccn2)CC1	-2%	-10	3.2%	16%
Cc1[nH]nc(C(=O)NN=Cc2ccccc2Cl)c1N=NN(C)C	.	.	-1.3%	-4%
CCOc1cc(C)nc(N2CCC(C(=O)NCC3CCCO3)CC2)n1 (configuration not stated)	.	.	-1.8%	-8%
Cc1cc(OC(=O)c2c(Cl)cc(Cl)cc2Cl)nc(C)n1	-5%	5	2.1%	-9%
COc1cccc(NC(=O)CCC2CCN(C(=O)c3ccc(C(C)=O)s3)CC2)c1	2%	.	-2.7%	5%
Cc1cccc(OCC(=O)OCC(=O)Nc2sccc2C(N)=O)c1	.	.	1.6%	4%
CCOc1ccc(N=NC2C(=O)N(C(N)=S)N=C2C)cc1 (configuration not stated)	-58%	.	0.1%	-6%
CCOC(=O)c1ccc(NC(=O)Cc2coc3cc4c(cc23)CCC4)cc1	1%	-15	1.1%	-23%
Cc1ccccc1OCCNc1cc(N2CCCCC2)ccc1[N+](=O)[O-]	-1%	3	0.2%	-19%
COc1ccc(C)cc1S(=O)(=O)NCCc1ccccc1	1%	-1	-0.5%	-4%
NC1=NC(=O)CC(C(=O)NCc2ccccc2)S1 (configuration not stated)	-1%	4	-0.9%	-4%
CCN1CCN(Cc2ccc(NC(=O)c3ccc(C)c(NC(=O)C4=NN(c5ccccc5)C(=O)C4)c3)cc2C(F)(F)F)CC1	2%	-16	1.3%	-11%
c1ccc(Nc2nc(CSc3ncn[nH]3)cs2)cc1	-37%	-3	-1.7%	1%
CCN1CCN(c2ccc(NC(=O)c3ccco3)cc2)CC1	-22%	.	-2.4%	1%
CCN1CCCC1CNC(=O)C1c2cc(OC)c(OC)cc2C(=O)N(C)C1c1cccnc1 (configuration not stated)	-4%	4	0.1%	-11%
CC(C)Oc1cccc(C(=O)C2CCCN(S(C)(=O)=O)C2)c1 (configuration not stated)	-16%	2	-5.7%	1%
CC(/C=C/c1ccc(O)cc1)=NNc1ccccc1	.	.	-5.5%	1%
CCOc1ccc(N2CC(C(=O)N3CCCCCC3)CC2=O)cc1 (configuration not stated)	5%	.	0.6%	5%
O=C(Nc1ccc2nc(-c3ccco3)c(-c3ccco3)nc2c1)N1CCCCCC1	1%	-2	?	?
COC(=O)c1cc(Cl)cc(Cl)c1OS(=O)(=O)N(C)C	-2%	2	-0.1%	19%
Cn1c(SCC(=O)NC2CCCCCC2)nnc1-c1ccco1	-1%	.	2.8%	-17%
CCOc1ccccc1NC(=O)COc1coc(CN2CCc3ccccc3C2)cc1=O	.	.	-0.4%	0%
O=C(CS(=O)(=O)c1ccccc1)c1cc2cc(F)ccc2oc1=O	-7%	.	4.8%	?
COc1ccc(C2CC(c3ccccc3)=NN2C(=O)COC(=O)c2cnc(Cl)c(Cl)c2)cc1 (configuration not stated)	-5%	-5	-0.5%	-3%
O=C(N/N=C/c1ccc(Br)s1)c1ccco1	-68%	-1	6.2%	0%
O=C(Cn1cc(COc2c(F)c(F)c(Br)c(F)c2F)nn1)c1ccc(O)cc1	.	.	-0.9%	?
COc1ccc(-c2nc(CN3CCC(C(=O)N4CCc5ccccc54)CC3)c(C)o2)cc1OC	-7%	-2	-4.8%	-10%
CN1C(=O)C(O)(CC(=O)c2ccncc2)c2ccccc21 (configuration not stated)	0%	9	-3.5%	1%
CCSc1nc(-c2ccccc2)cc(=O)[nH]1	.	.	-0.3%	2%
Cc1cc(NC(=O)CSc2nc(=O)n(CCCN(C)C)c3c2CCCC3)no1	.	.	-0.6%	-1%

The listing continues.
Molecule	miR-21 FLuc	GLA inh pH 4.5	Rango-impB inh	Rango dissoc inh
CCCCn1c(-c2ccc(C(C)(C)C)cc2)nc2cc3[nH]c(=O)c(C(C)C)nc3cc21	2%	.	?	?
Cc1ccc(-n2ncc3c(SCC(=O)Nc4cc(C)on4)ncnc32)c(C)c1	4%	-23	-2.4%	-14%
Cc1ccc(NS(=O)(=O)c2cccc(C(=O)n3ncc(C#N)c3N)c2)c(C)c1	2%	2	-2.2%	1%
COc1ccc(/C=C/c2c(-c3ccc(OC)cc3)oc3cccnc23)cc1	-4%	.	-1.2%	-14%
O=C(c1ccc([N+](=O)[O-])cc1)N1CCN(C2=NS(=O)(=O)c3ccccc32)CC1	3%	.	1.3%	-10%
O=C(CCCCCNC(=O)c1ccccc1)N/N=C/c1ccccc1	-6%	5	-2.2%	2%
NC(=O)C1CCN(C(=O)OCc2ccccc2)CC1	-9%	-19	-0.8%	-9%
COc1cc(OC)c(S(=O)(=O)NC(C)C)cc1C(=O)O	-1%	0	0.7%	0%
CCn1c(SCC(=O)Nc2nc(C)cs2)nnc1-c1ccoc1C	7%	3	-2.1%	5%
CCN(C(=O)CSc1cccc[n+]1[O-])C1CCCCC1	.	.	2.9%	1%
COc1ccc(C(=O)NCc2nnc(SCC(=O)NC3CCCC3)o2)cc1	-2%	.	-2.8%	?
CCOc1ccc(-c2cnc3ccccc3n2)cc1	-22%	-1	-2.3%	-26%
CC1CN(C(=O)c2cc3ccccc3cc2O)CC(C)O1 (configuration not stated)	.	.	-2.1%	5%
O=C(NC1CCSc2ccccc21)c1cccc(Cl)c1 (configuration not stated)	0%	.	0.0%	0%
COC(=O)C1=C(N)OC2=C(C(=O)CC(C)(C)C2)C1c1cccnc1 (configuration not stated)	-3%	-4	-1.2%	-5%
Cc1ccc(NC(=O)c2c(NC(=O)CCC(=O)O)sc3c2CCCCC3)cc1	-42%	2	?	-20%
CCNC(=S)Nc1cccc(S(=O)(=O)Nc2ccccc2OC)c1	15%	-2	1.0%	3%
O=C(CNC(=O)c1sc2ccccc2c1Cl)NCc1ccc(F)cc1	.	.	-0.6%	5%
CC1(C)c2ccccc2C(=O)c2ccccc21	.	.	-0.1%	2%
COc1cc(/C=C/C(=O)OCC(=O)NC(=O)NC(C)C)cc(OC)c1OC	8%	-14	0.7%	15%
COc1cnc(SC(C)C)[nH]c1=O	-1%	2	-0.1%	0%
CC(C)C(=O)NNC(=O)c1ccccn1	-8%	-3	-1.3%	-3%
Cc1ccc(S(=O)(=O)N(C)C)cc1NC(=O)C(C)OC(=O)C1CCC1 (configuration not stated)	.	.	3.1%	0%
Cc1cccc(C(=O)NC(C(=O)Nc2ccccc2N2CCOCC2)C(C)C)c1 (configuration not stated)	-1%	2	-0.2%	12%
O=C(CCS(=O)(=O)c1ccc(Br)cc1)Nc1ccc(Br)cc1F	2%	0	1.1%	-11%
N#C/C(=C\C=C\c1ccccc1[N+](=O)[O-])C(=O)NC1CCCCC1	?	-4	-1.7%	5%
CCC(c1ccccc1)c1nc(-c2cccnc2)no1 (configuration not stated)	-13%	-1	3.8%	-13%
CCN(CC)c1ccc2c(O)cc(=O)oc2c1	-4%	-3	-4.8%	-14%
CCN(CC)S(=O)(=O)c1ccc2c(c1)N(CC(=O)NCCCN1CC(C)CC(C)C1)C(=O)CO2 (configuration not stated)	-3%	.	-0.1%	11%
